High-throughput results deposited in PubChem by National Center for Advancing Translational Sciences (NCATS).
Menin MLL FP FL – qHTS Assay for Inhibitors Targeting the Menin-MLL Interaction in MLL Related Leukemias: Competition With Fluorescein Labeled MLL-derived Peptide; 290,000 tested, under 10 active; AID 1766, 2009; Fluorescence polarization, fluorescein-MLL peptide displacement from menin; FP activity change, % at 61.4 µM; inconclusive = falling polarisation curve, or a change in total fluorescence; inactive = total fluorescence flat and polarisation flat or rising; no compound was filed as active; the % refers to the polarisation; negative = inhibition;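 note: % of control where 0% means no effect; inhibitors lower the polarisation; unlabelled MLL peptide was the positive control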
gsp antag – qHTS for Antagonists of gsp, the Etiologic Mutation Responsible for Fibrous Dysplasia/McCune-Albright Syndrome: qHTS | gsp-mutant cells, cAMP HTRF, 30 min; control for the full effect not named in the record | Potency, µM (top dose mostly 76.9 µM), without a hit: at the top dose activity change, negative = inhibition, most hits filed as inhibitors | hit rate 0.4% among 340,000; active = falling curve of any shape with a large fitted effect; inconclusive = falling curve, mostly with a smaller effect; inactive = flat or rising curve; cell line not stated here;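 note: intracellular cAMP measured with PDE inhibitor Ro 20-1724 present during compound exposure; potency is the fitted concentration of half-maximal effect; % is set by controls: 0 for no effect and ±100 for the full control effect; nearly all actives have a fitted effect of over 65% in size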
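Measurement of cellular cAMP by homogeneous time-resolved fluorescence following a 30 min compound exposure at 37C. The PDE inhibitor […] was present throughout; the assay buffer was DPBS with 0.05% BSA and 0.005% Tween 20.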
ClpP mod – qHTS Assay for Activators of ClpP. Potency, µM (doses to about 57.5 µM), for the others: top-dose activity change, negative = active. AID 651965, 2013. purified B. subtilis ClpP, FRET peptide cleavage, 20 min. ATP-dependent Clp protease proteolytic subunit (Bacillus subtilis (strain 168)), P80244. hit rate 1.9% among 340,000; active = well fitted falling curve with a large enough effect; inconclusive = small, poorly fitted or top-dose-only effect; inactive = no such curve, though single readings can be large or run the other way; note: potency is the fitted concentration of half-maximal effect; the source files actives as falling curves though it sought activators and does not explain the sign; nearly all actives have a fitted effect of over 65% in size; many hits overshoot -100%
Target sequence (P80244 whole entry, looked up): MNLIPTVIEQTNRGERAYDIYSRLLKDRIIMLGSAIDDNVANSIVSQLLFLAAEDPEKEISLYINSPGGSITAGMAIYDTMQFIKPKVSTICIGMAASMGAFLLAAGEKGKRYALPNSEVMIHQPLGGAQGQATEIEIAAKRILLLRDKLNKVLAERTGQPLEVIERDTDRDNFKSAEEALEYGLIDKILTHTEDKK
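Buffer: 100 mM Tris/HCl pH8, 100 mM KCl, 0.05% low protease BSA, 2.5% glycerol, 0.01% Tween-20. ClpP 10 microg/mL final; 20 min RT; delta FRET normalized to ADEP and DMSO controls.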
gsp ag – qHTS for Agonist of gsp, the Etiologic Mutation Responsible for Fibrous Dysplasia/McCune-Albright Syndrome: qHTS. gsp mutant cells, cAMP HTRF, 30 min; control for the full effect not named in the record. Potency, µM (top dose mostly 76.9 µM), without a hit: at the highest dose activation (cAMP increase), usual class: activators. hit rate 0.13% among 340,000. AID 624287, 2012; active = well fitted activation curve with a large enough effect; inconclusive = small, poorly fitted or top-dose-only effect, or another doubt; inactive = no such curve, though single readings can be large or run the other way; cell line not stated here;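 note: phosphodiesterase inhibitor Ro 20-1724 added with compounds to block cAMP breakdown; potency is the fitted concentration of half-maximal effect; nearly all actives have a fitted effect of over 60% in size; about a fifth of the inactives were tested at one dose only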
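Cells in DMEM/10% FBS with G418 were pretreated with compounds in DMSO plus […] (300 uM stock) for 30 min at 37C. cAMP was measured by HTRF (cAMP-d2 plus anti-cAMP antibody-K) after 30 min at room temperature.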
TRPML1 blocker – qHTS for Inhibitors of the Human Mucolipin Transient Receptor Potential 1 (TRPML1); TRPML1-inducible cells, Ca2+ dye fluorescence, FDSS; hits give low values; inhibition of EC80 agonist-evoked calcium signal; AID 624415, 2012; hit rate 0.02% among 390,000; activity change, negative = inhibition, % (test concentration not listed); in the data active means activity change below about -50%; inconclusive means about -30% to -50%; inactive means above about -30%;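 note: stimulus is agonist 54-4 at its EC80 concentration; % is set by controls: 0 for no effect and ±100 for the full control effect; compound concentration not given in the record; the text of the record puts the active cut at -80%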
Target sequence (Q9GZU1 whole entry, looked up): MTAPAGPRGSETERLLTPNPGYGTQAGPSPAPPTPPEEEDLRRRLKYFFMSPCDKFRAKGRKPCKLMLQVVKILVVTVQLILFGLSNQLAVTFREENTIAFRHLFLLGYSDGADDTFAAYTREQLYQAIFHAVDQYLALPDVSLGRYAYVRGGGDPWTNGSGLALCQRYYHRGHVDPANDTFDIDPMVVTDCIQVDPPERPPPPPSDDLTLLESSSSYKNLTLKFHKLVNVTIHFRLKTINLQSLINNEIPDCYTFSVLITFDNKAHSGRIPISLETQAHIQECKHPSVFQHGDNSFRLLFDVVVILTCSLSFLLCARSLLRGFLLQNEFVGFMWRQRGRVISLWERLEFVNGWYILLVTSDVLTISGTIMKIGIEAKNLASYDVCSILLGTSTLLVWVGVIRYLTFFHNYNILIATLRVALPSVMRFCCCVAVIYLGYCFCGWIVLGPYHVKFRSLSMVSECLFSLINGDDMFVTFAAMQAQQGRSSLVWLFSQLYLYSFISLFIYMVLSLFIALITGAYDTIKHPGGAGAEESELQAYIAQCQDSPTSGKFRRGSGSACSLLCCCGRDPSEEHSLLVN
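Calcium fluorescence in TRPML1-DL cells induced overnight with Tet: a 110 s read after compound pin addition, then a 110 s antagonist read after challenge with 54-4 at 4 uM final (EC80).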
TRPML1 ag – qHTS for Agonists of the Human Mucolipin Transient Receptor Potential 1 (TRPML1) | Mucolipin-1 (Homo sapiens), Q9GZU1 | TRPML1-expressing cells, Ca2+ dye fluorescence, FDSS; host cell line not named in the record; reference of the full effect not given here | activation, % (test concentration not listed) | hit rate 0.12% among 410,000 | AID 624414, 2012; in the data active = activation above about 50%; inconclusive = about 30% to 50%; inactive = below about 30%; note: 0% is about no effect; the text of the record puts the active cut at 80%
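Cells: TRPML1-DL, 1X Tet inducer, ~16 h at 37 degrees C/5% CO2. Dye: ABD Ca8 no-wash + quencher, 45-90 min RT. Read: 10 s baseline, compound add, 110 s agonist phase; 54-4 EC80 (4uM final), 110 s antagonist phase.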
* marks the source's active call; other numbers are inactive results; ? = inconclusive; · = no result given; & = joins results of further samples; [ ] = another dose, or the depositor's remark.

SMILES | Menin MLL FP FL | gsp antag | ClpP mod | gsp ag | TRPML1 blocker | TRPML1 ag
COc1ccc(/C=C2\SC(=O)N=C2N)cc1OC | 2.0 | 7.0% | -4.7% | -24.9% | -9.4 | 2.7
Cc1cc(-n2c(SCCC#N)nnc2-c2cccnc2)ccc1Cl | 4.3 | -5.0% | -3.6% | 27.4% | -12.7 | 0.5
O=C(O)COc1ccccc1/C=C1\SC(=Nc2ccc(F)cc2)N(c2ccc(F)cc2)C1=O | -3.8 | ? | 0.3% | -5.0% | 22.1 | 0.2
CCn1c(SCC(=O)N2CCCCC2C)nnc1-c1ccc(S(=O)(=O)N2CCN(C)CC2)cc1 (configuration not stated) | -2.0 | 3.3% | ? | -23.8% | 3.2 | 0.9
COc1ccc2nc(-c3ccccc3)cc(C(=O)OCC(=O)NC3CC3)c2c1 | · | -6.4% | 10µM* | -5.6% | 7.5 | 1.1
Cc1ccc(CN2CC(C(=O)N3CC=C(c4ccccc4)CC3)CC2=O)cc1 (configuration not stated) | · | -6.0% | -0.6% | -49.5% | -9.4 | 0.1
CCN(CC)CC1(O)CCN(C(=O)c2ccc(Cl)c(Cl)c2)CC1 | 2.6 | -10.9% | 0.0% | 17.1%[15.4 µM] | -0.6 | 0.6
CCCCNC(=O)c1ccccc1SCc1c(C)noc1C | 1.7 | 12.1% | -1.9% | 6.6% | -21.5 | 1.7
CC(NC(=O)C1CC12CCC2)c1ccccc1 (configuration not stated) | 9.6 | 7.4% | 1.4% | 4.1% | -0.4 | 0.9
COc1ccc(N2C(=O)C(CC(N)=O)N(NC(=O)c3cccc(OC)c3)C2=S)cc1 (configuration not stated) | -0.8 | · | · | -22.0%[15.4 µM] | -11.4 | 0.3
Cc1nc2nc(-c3ccccc3)[nH]n2c(=O)c1Cc1ccccc1 | 2.9 | -7.2% | ? | -15.1% | 2.5 | -0.9
Cc1ccc(NC(=O)NC(=O)COc2ccccc2C(N)=O)c(C)c1 | · | 1.1% | -2.4% | 11.1% | 3.5 | -0.8
CN(C)CCCNc1oc(-c2cccc(Cl)c2)nc1C#N | -0.8 | 17.4% | ? | -11.6% | -2.6 | 0.9
COc1ccc(NC(=O)N2CCc3cc(OC)c(OC)cc3C2)cc1 | -6.2 | 1.0% | -2.3% | 5.5%[15.4 µM] | 8.9 | 0.7
CSc1ncc(Cl)c(C(=O)N(Cc2ccc(N(C)C)cc2)Cc2ccco2)n1 | · | · | -1.8% | · | 28.2 | 2.1
Cc1nc(C#N)c(N/N=C/c2c(F)cccc2Cl)o1 | 1.8 | -7.4% | -1.8% | -60.4%[inhibitor] | 26.0 | -0.1
Cc1ccc(OCC(=O)Nc2cc(NC(=O)COc3ccc(C)c(C)c3)cc(C(=O)O)c2)cc1C | 3.3 | -15.6% | -2.5% | -46.9%[inhibitor] | -1.4 | 0.0
CCC(C)NC(=O)CSc1nc2c(sc3ccccc32)c(=O)n1Cc1ccccc1Cl (configuration not stated) | · | · | -8.3% | · | -13.8 | -0.5
CCOC(=O)c1ccc(NC(=O)N2CCN(C(=O)C3CCCO3)CC2)cc1 (configuration not stated) | -0.3 | -10.9% | · | 8.1%[15.4 µM] | -5.8 | 0.0
CC(C)(C)C1C/C(=C/c2ccco2)C(=O)/C(=C/c2ccco2)C1 (configuration not stated) | ? | -9.4% | 1.4% | -8.7% | -11.2 | 5.2
Cc1nn(C)cc1CN(C)C(=O)c1sc2cccc(Cl)c2c1Cl | 2.8 | -1.3% | ? | ? | 10.4 | 1.1
Cc1ccc(Nc2c(-c3ccc(Br)o3)nc3ccccn23)cc1 | · | · | 8.91µM* | · | 62.2 | 6.0
COc1cccc(-c2nnc(-c3ccc(C(F)(F)F)cc3)o2)c1OC | 3.9 | -5.5% | -20.5% | -14.5% | 1.5 | -0.4
Cc1cccc2cccnc12 | · | 0.6% | 0.7% | · | 1.9 | -0.6
COc1ccc(N=Cc2c(O)ccc3ccccc23)cc1 | ? | -29.8% | · | 1.2% | 30.0 | 9.0
Cc1cccc2nc(CSCc3ccco3)cn12 | 0.3 | 4.6% | -0.8% | 5.1% | 7.3 | -0.5
Cc1ccc2nc(NC(=O)COC(=O)c3ccc(Br)o3)sc2c1 | -1.4 | 4.6% | 1.2% | -1.3% | -10.7 | -0.4
O=C(CSc1nc2c(c(C(F)(F)F)n1)CCc1ccccc1-2)NCc1ccccc1 | 0.2 | 31.8%[activator] | 0.0% | 11.2% | -2.8 | -0.7
O=C1C[C@@H]2c3c(cccc3CN1Cc1ccccc1F)C[C@@H](O)[C@H]2O | · | 8.9% | 0.2% | -24.1% | -11.4 | 0.1
COc1ccc(NC(=O)CN2C(=O)NC(C)(c3ccc4c(c3)OCCO4)C2=O)cc1S(N)(=O)=O (configuration not stated) | · | -4.6% | · | 0.4% | -3.7 | 1.9

Two compounds from above, limited to ClpP mod, Menin MLL FP FL and TRPML1 ag.
molecule	ClpP mod	Menin MLL FP FL	TRPML1 ag
O=C1C[C@@H]2c3c(cccc3CN1Cc1ccccc1F)C[C@@H](O)[C@H]2O	0.2%	·	0.1
COc1ccc(NC(=O)CN2C(=O)NC(C)(c3ccc4c(c3)OCCO4)C2=O)cc1S(N)(=O)=O (configuration not stated)	·	·	1.9

(continued)
SMILES | Menin MLL FP FL | gsp antag | ClpP mod | gsp ag | TRPML1 blocker | TRPML1 ag
CC1CCc2c(sc(/N=C/c3cccnc3)c2C(N)=O)C1 (configuration not stated) | 2.4 | 3.0% | -2.6% | -4.9%[15.4 µM] | 12.4 | 0.7
Cc1noc(C)c1S(=O)(=O)N1CCC(C(=O)Nc2ccc(OC(F)(F)F)cc2)CC1 | 1.0 | 1.8% | -0.7% | 4.9% | 14.3 | -1.1
O=C1/C(=C/C=C/c2ccco2)SC(=S)N1NS(=O)(=O)c1ccccc1 | ? | -13.2% | -0.6% | 6.2% | · | ·
CC(NC(=O)CN1C(=O)COc2ccc(Cl)cc21)c1ccccc1 (configuration not stated) | · | · | -2.3% | · | 0.6 | -0.5
C/C(=C\C(=O)c1ccc(Br)cc1)NCc1ccccc1 | 0.6 | -5.2% | -3.9% | -18.1% | 2.9 | 2.2
CC(=O)Oc1ccccc1/C=C/c1nc2ccccc2c(=O)o1 | 17.5 | -23.4% | · | -2.5% | -5.3 | 0.7
Cc1ccc(S(=O)(=O)N(C)C)cc1N | 0.7 | 8.9% | · | ? | -9.2 | 0.9
COc1ccc(/C=C2\SC(=S)N(CCC(=O)Nc3ccc(O)cc3)C2=O)cc1 | 3.9 | -2.3% | 1.1% | -1.1%[15.4 µM] | 6.4 | 0.2
O=S(=O)(N1CCOCC1)n1nnc2ccccc21 | 3.0 | 7.6% | 0.3% | -1.3% | 16.2 | 0.1
C=CCNc1nc2c(c(=O)n(C)c(=O)n2C)n1Cc1ccc(F)cc1 | 0.3 | -4.9% | 1.6% | 29.0% | 9.9 | -1.0
COc1ccc2cc(CNc3ccc(C)cc3)c(=O)n(CC(=O)Nc3ccc(OC)c(Cl)c3)c2c1 | · | · | 7.7% | · | -1.3 | 2.4
CN(c1cccc(NS(=O)(=O)c2cccc([N+](=O)[O-])c2)c1)S(C)(=O)=O | 4.4 | 5.6% | · | -0.8% | 2.5 | -0.3
C/C(CCc1ccccc1)=N\NC(=O)C1C2CCCCC21 (configuration not stated) | -3.0 | 13.0% | 1.7% | -28.5% | 7.3 | -0.3
O=C(c1ccccc1S(=O)(=O)NCC(O)COc1ccc([N+](=O)[O-])cc1)N1CCCCC1 (configuration not stated) | 0.9 | -3.0% | 0.7% | ? | 61.4 | -0.3
CC(=O)c1ccc(N=Nc2ccc(N)cc2)cc1 | -0.5 | -6.8% | -0.8% | 2.4% | 45.2 | 0.4
CCCn1nnc(NC(=O)c2ccc(OCC)c(Cl)c2)n1 | -0.1 | 6.4% | -2.3% | 14.3% | -2.0 | 2.2
Cc1ccc(C)c(NC(=O)COc2cccc3c2CCN(Cc2ccccc2C)C3=O)c1 | -5.7 | -18.1% | 0.4% | 0.6% | 5.8 | 0.8
CCCCNC(=O)C1(C)CCCCN1C(=O)c1ccc(F)cc1Cl (configuration not stated) | · | · | 0.4% | · | 2.8 | -0.1
C/C(=N\NC(=O)CCn1nnc2ccccc21)c1ccco1 | -4.5 | -7.9% | -0.7% | 0.5% | 12.8 | 1.3
C=CCNc1nc(Nc2ccc(OC)cc2)nc(OC)n1 | 2.9 | 12.3% | -0.4% | 3.8% | 27.1 | 5.0
CCOC(=O)c1c(SCC(=O)Nc2nc(C)cs2)nc(=O)[nH]c1C | · | -12.7% | 0.4% | 10.4% | -15.5 | 0.9
Cc1ccc(CNc2nc3ccccc3n3nnnc23)cc1 | -10.1 | 4.9% | 4.9% | ? | -0.7 | -0.1
N=C1S/C(=C\c2ccc(-c3cccc(Cl)c3)o2)C(=O)N1c1nccs1 | ? | -5.6% | 0.6% | -23.2% | -10.1 | 0.3
CCc1ccc(-n2c(=O)c3ccc(C(=O)NCCc4ccccc4)cc3n(CC(N)=O)c2=O)cc1 | 3.1 | -25.5% | 1.4%&-14.6% | 5.0%[15.4 µM] | -7.6&5.1 | -0.5&1.3
Cc1cc(Cl)ccc1OCC(=O)Nc1cccc(S(=O)(=O)NC2=NCCCCC2)c1 | · | -7.4% | -2.4% | -14.9% | -5.1 | -0.2
O=C(COc1ccc(Cl)cc1)NCc1nnc(SCC(=O)NCCc2ccccc2)o1 | 1.2 | 17.0% | -0.7% | 11.6% | 0.7 | 0.6
CC(=O)Nc1ccc(S(=O)(=O)NCCNC(=O)c2ccccc2F)cc1 | 2.5 | 10.0% | -3.0% | -11.6% | 15.7 | 0.5
O=C(NCCCN1CCOCC1)c1cc2c(s1)CCC2 | 1.3 | 13.9% | 1.9% | -23.1% | 8.7 | 0.2
Cc1cc(C)cc(NS(=O)(=O)c2cc(C(=O)NCc3ccccn3)ccc2Cl)c1 | 3.4 | -14.8% | 29.1% | -0.6%[15.4 µM] | 1.3 | -0.5
CSc1nc2c(c(=O)[nH]1)C(c1ccc(F)cc1)CC(=O)N2 (configuration not stated) | -1.9 | 3.9% | · | -57.7%[inhibitor] | -7.0 | 0.2
COc1ccc(N=C2S/C(=C\c3ccco3)C(=O)N2CC(C)C)cc1 | ? | 4.9% | 0.1% | 5.8% | -0.8 | -0.4
CC(NC(=O)c1ccc2c(c1)OCO2)C(c1cccs1)N1CCN(c2ccccc2)CC1 (configuration not stated) | 6.1 | -19.1% | · | -1.2%[15.4 µM] | 10.2 | 1.8
